HIV Env fusion – inhibitors of HIV-1 Env-driven cell-cell fusion, primary screen, HeLa-JRFL effector, CEM21 target cells, luciferase; inhibition, % at 12.3 µM; hit rate 1.1% among 360,000;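 active = mean replicate inhibition score of at least 50 and every replicate individually at or above 50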;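 note: 0% = plate neutral controls and 100% = maraviroc near 300 nM; one replicate is shown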
eIF4H inh – human eIF4H binding inhibitors, primary screen, translation initiation inhibitor project, biochemical, uHTS, fluorescence polarization; inhibition, % at 35 µM; hit rate 0.94% among 290,000; Eukaryotic translation initiation factor 4H (Homo sapiens), Q15056; eIF4H fluorescence polarization binding assay;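 active = 50% or more with normal probe brightness, or confirmed in later tests; about a fifth of its hits are not listed in these tables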;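 note: calls also rest on retests at 20 µM and on dose response follow-up; 0% = protein and probe with vehicle and 100% = probe without protein; strong numbers were not always called active; many hits fall short of the cut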
Rce1 inh – yeast Rce1p protease inhibitors, primary screen, biochemical, fluorescence, cell-free homogeneous | CAAX prenyl protease 2 (Saccharomyces cerevisiae (strain ATCC 204508 / S288c)), Q03530 | yeast membranes, quenched prenylated peptide cleavage fluorescence | calls only | hit rate 0.27% among 290,000;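 active = fall in fluorescence gain of 50% or more versus controls, with final raw signal at or below 3038400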;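 note: plate controls were neutral control wells for no effect and wells lacking membranes for full effect; tested at 10 µM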
Target sequence (Q03530 whole entry, looked up): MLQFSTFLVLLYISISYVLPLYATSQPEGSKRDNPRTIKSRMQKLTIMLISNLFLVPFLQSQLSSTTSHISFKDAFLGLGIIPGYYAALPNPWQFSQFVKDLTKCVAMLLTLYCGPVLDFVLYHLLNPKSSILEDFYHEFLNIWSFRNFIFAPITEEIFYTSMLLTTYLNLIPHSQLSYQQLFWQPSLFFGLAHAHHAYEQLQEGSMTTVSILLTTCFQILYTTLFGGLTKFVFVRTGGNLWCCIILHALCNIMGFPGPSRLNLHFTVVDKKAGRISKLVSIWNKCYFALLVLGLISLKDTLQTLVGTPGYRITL
MT1-MMP act inh – blockers of MT1-MMP proenzyme processing, primary screen, HT1080 RFP-PRO-GFP cells, GFP/RFP fluorescence | GFP/RFP ratio change, % at 20 µM | Matrix metalloproteinase-14 (Homo sapiens), P50281 | GFP/RFP ratio fluorescence, overnight; percent of plate control window, DMSO zero | hit rate 0.061% among 360,000;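 active = GFP/RFP ratio change of at least 30% with cell ATP level not reduced by more than half and red fluorescence within 50% of control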; note: strong numbers were not always called active
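Test system: HT1080 RFP-PRO-GFP cells; Benchmarks: DMSO and RFP-L50D-GFP cell wells; Timing: cells overnight before dosing, compound overnight, 37 °C, 5% CO2; Compound: one 20 µM compound dose with 1% DMSO; Read-out: GFP/RFP fluorescence ratio.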
CSC inhib – cancer stem cell viability inhibitors, primary screen, luminescence; cancer stem cell-like cells viability; inhibition, % at 7.5 µM; hit rate 1.1% among 300,000; AID 2717, 2010;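 active = mean at 75% or more and at least half the replicates too; tested in HMLE shEcad cells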;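 note: 0% = median of negative and 100% = median of positive control wells; the first replicate is given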
PABP polyA inh – PABP poly(A) RNA binding inhibitors, primary screen, biochemical, fluorescence polarization, uHTS | AID 2014, 2009 | inhibition, % at 35 µM | hit rate 1% among 290,000 | Polyadenylate-binding protein 1 (Homo sapiens), P11940;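 active = 50% or more with normal probe brightness, or confirmed in later tests; about a fifth of its hits are not listed in these tables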;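 note: calls also rest on retests at 20 µM and on dose response follow-up; controls were probe without protein and protein plus probe with vehicle; some compounds called inactive have numbers as strong as hits; many hits fall short of the cut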
Target sequence (P11940 whole entry, looked up): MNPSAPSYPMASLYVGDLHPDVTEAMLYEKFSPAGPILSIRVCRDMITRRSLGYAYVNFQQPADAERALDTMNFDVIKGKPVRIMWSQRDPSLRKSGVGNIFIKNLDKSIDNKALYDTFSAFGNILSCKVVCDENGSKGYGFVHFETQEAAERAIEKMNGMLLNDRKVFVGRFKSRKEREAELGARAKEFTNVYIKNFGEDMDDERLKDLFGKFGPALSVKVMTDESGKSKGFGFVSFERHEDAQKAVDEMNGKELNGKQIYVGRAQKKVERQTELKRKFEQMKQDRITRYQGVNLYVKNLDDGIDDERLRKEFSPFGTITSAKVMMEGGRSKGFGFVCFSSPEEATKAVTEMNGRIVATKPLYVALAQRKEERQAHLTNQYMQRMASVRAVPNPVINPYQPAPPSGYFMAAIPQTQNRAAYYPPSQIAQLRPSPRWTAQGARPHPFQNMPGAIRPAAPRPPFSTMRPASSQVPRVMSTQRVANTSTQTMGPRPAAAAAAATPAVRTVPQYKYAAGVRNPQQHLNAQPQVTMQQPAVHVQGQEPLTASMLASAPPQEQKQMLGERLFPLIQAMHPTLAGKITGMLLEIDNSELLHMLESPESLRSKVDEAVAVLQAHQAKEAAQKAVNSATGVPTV
Yeast UUG start – modulators of yeast start codon fidelity, primary screen, whole organism, S. cerevisiae, single point, plate reader; hit rate 0.13% among 350,000; S. cerevisiae UUG-firefly luciferase reporter, luminescence/redox ratio; activity score, % at 18.7 µM;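 active = replicate mean at a twofold rise or more, about +100% in these data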;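 note: firefly luciferase made from a UUG start codon reports start codon fidelity; reporter light over untreated wells divided by growth signal over untreated wells; some hits fall short of that in this replicate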
MT1-MMP act inh RFP – also measured in MT1-MMP act inh; calls as there; RFP signal change, %; measured here: RFP expression control read;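 0 = vehicle wells; hits needed this value within 50% of zero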
* = called active by the depositor; i = inactive; . = no result given; & = joins results of further samples. A portion of the library (hit frequency here may not be typical).

cpd	molecule	HIV Env fusion	eIF4H inh	Rce1 inh	MT1-MMP act inh
1	CC(C)CCC(O)(CCC(C)C)C(=O)NN1CCCCC1	-6	1	i	2
2	O=C(O)Cc1ccc(NC(=S)NCc2ccco2)cc1	14	11	i	2
3	Cc1cc(C)c2c(c1)OC(=O)CC2c1ccccc1C (stereo not drawn)	-3	.	.	1
4	C#CCN(Cc1ccco1)C(=O)c1cc(COc2cccc3cccnc23)on1	-18	.	.	4
5	O=C(O)c1cccc(NS(=O)(=O)c2ccc(Cl)c(C(=O)O)c2)c1	8	7	i	3
6	CNC(=O)c1ccsc1NC(=O)c1ccc(S(=O)(=O)N2CCOCC2)cc1	-27	1	i	5
7	Cc1ccc(CSc2nnc(NC(=O)C3=COCCO3)s2)cc1	-16	.	.	-1
8	CCc1nnc(NC(=O)CSc2nnc3ncccn23)s1	.	-1	i	3
9	CCCCNC(=O)N(O)C1N(/N=C/c2ccccc2OC)C(=S)SC1(C)C (stereo not drawn)	49	-9	i	-4
10	CC1CC(C)CN(C(=O)C2CCCN(S(=O)(=O)c3cnc[nH]3)C2)C1 (stereo not drawn)	-7	-5	i	4
11	Cc1cc[n+](CC(=O)c2ccc3c(c2)OCCO3)cc1	-10	-4	i	2
12	COc1ccccc1OCCNC(=O)C1CCCCC1	-5	-5	i	2
13	CCOC(=O)CCC(=O)N(CCN(C(=O)CCC(=O)OCC)c1ccccc1)c1ccccc1	-34	5	i	-1
14	Oc1c(CN2CCOCC2)cc(CN2CCOCC2)c(O)c1CN1CCOCC1	3	.	.	1
15	CC(C)S(=O)(=O)N1CCCC(c2cc(C(=O)NCc3ccccc3)no2)C1 (stereo not drawn)	7	.	.	4

cpd	MT1-MMP act inh RFP	CSC inhib	PABP polyA inh	Yeast UUG start
1	8	.	14	.
2	5	.	8	.
3	3	.	.	7
4	-2	.	.	-14
5	1	-10	6	-5
6	1	-6	-10	4
7	0	.	.	-21
8	0	-2	15	5
9	-2	-6	8	-10
10	3	9	-5	-7
11	4	-5	10	-22
12	3	6	-2	1
13	2	2	-3	-10
14	4	.	.	-3
15	7	.	.	-18

Carrying on:
cpd	molecule	HIV Env fusion	eIF4H inh	Rce1 inh	MT1-MMP act inh
16	COC(=O)c1cc(S(=O)(=O)NCc2ccc(S(N)(=O)=O)cc2)oc1C	-17	0	i	6
17	CC(=O)c1cccc(-c2ccc3c(c2)C(C)(Cc2ccccc2C#N)C(=O)N3)c1 (stereo not drawn)	-20	.	.	2
18	CC1CCN(S(=O)(=O)c2cn(CC(=O)N3CC(C)CC(C)C3)c(=O)c3ccccc23)CC1 (stereo not drawn)	-21	0	i	2
19	Cc1nn(C)c(C(=O)NC(=S)Nc2ccccc2O)c1Cl	-43	-2	i	-4
20	COc1ccc(S(=O)(=O)Nc2cc(C(=O)NCCC(C)C)ccc2N2CCOCC2)cc1	-21	0	i	-3
21	CN1c2ccccc2C(C)(C)C12CC(c1ccc(Cl)c(S(=O)(=O)N3CCCC3)c1)=NO2 (stereo not drawn)	.	-2	i	.
22	NS(=O)(=O)c1ccc(NC(=O)/C=C/c2ccccc2Cl)cc1	-6	-5	i	-2
23	CN1CCC(=NNC(=O)C(=O)Nc2ccccc2)CC1	-7	-6	i	1
24	CC(C)Nc1ncnc2ccc(Br)cc12	55*	4	i	-16
25	O=C(/C=C/c1ncc(C(F)(F)F)cc1Cl)OCc1ccccc1	.	0	i	0
26	O=C1COc2cccnc2N1	i	1&3	i	3
27	Cc1ccc(-c2nc3ccccc3c(=O)n2O)cc1	-4	-1	i	-1
28	Cc1ccccc1NS(=O)(=O)c1cc2c(cc1C)N(C)CCO2	-14	-6	i	-1
29	CCOC(=O)N1CCN(C(=O)C2CCN(Cc3cccc(OCc4ccccc4)c3)CC2)CC1	4	-5	i	1
30	COc1ccc(C2(CNC(=O)c3ccccc3)CCOCC2)cc1	7	-5	i	1

cpd	MT1-MMP act inh RFP	CSC inhib	PABP polyA inh	Yeast UUG start
16	2	-7	-4	-1
17	-8	.	.	0
18	5	-8	4	-1
19	3	12	-1	-14
20	-1	-17	6	4
21	.	-3	-4	.
22	-2	-5	6	-9
23	6	1	-1	.
24	-24	2	-6	.
25	-3	-16	4	-8
26	2	-1	-8&-3	-8
27	4	-4	-7	4
28	-1	-6	-10	1
29	-3	-18	34	7
30	2	-13	-5	-5

Additional structures.
cpd	molecule	HIV Env fusion	eIF4H inh	Rce1 inh	MT1-MMP act inh
31	CC(=O)NCCC(=O)Nc1ccc(C)c(F)c1	16	-7	i	2
32	CCOc1cc(NC(=O)c2ccccc2OC)c(OCC)cc1NC(=O)c1ccccc1	-24	8	i	1
33	Cc1c(C)n(C)c2ccc(C(=O)NCCCN3CCCCC3C)cc12 (stereo not drawn)	-1	-6	i	-1
34	Cc1nnc(SCc2cnc(-c3ccc(C(C)C)cc3)s2)n1C	-188	0	.	4
35	CCC(C)(C)C1CCc2[nH]nc(C(=O)N/N=C(\C)c3ccco3)c2C1 (stereo not drawn)	-53	3	i	3
36	O=C(CN(C(=O)CCC(=O)Nc1nccs1)c1ccccc1F)NCc1ccc2c(c1)OCO2	24	6	.	-5
37	Cc1cc(C)cc(NC(=O)N2CCCC2C(=O)Nc2ccc(-n3cnnn3)c(C)c2)c1 (stereo not drawn)	.	2	i	4
38	O=C(O)c1cccc(CSc2ncccn2)c1	6	-3	i	-2
39	CC(=O)Nc1ccc(-c2c(C)cc3oc(=O)cc(-c4ccccc4)c3c2C)cc1	-12	.	.	-4
40	COc1cc2c(cc1OC)C(COc1ccc(F)cc1)NCC2 (stereo not drawn)	0	-4	i	0
41	CC(=O)c1c(OC(=O)c2ccccc2)c2ccccc2n1C	.	5	i	-3
42	CCCc1ccc(OCCNC(=O)CC)cc1	.	-10	i	7
43	O=c1[nH]c2ccccc2nc1C(Nc1ccccc1)c1ccccc1 (stereo not drawn)	8	-8	i	-1
44	O=C(NC1CCCCC1)c1ccc(OC2CCN(Cc3ccccn3)CC2)cc1	.	-1	i	-2
45	COc1ccc(C(=O)Nc2ccc(S(=O)(=O)Nc3nccc(C)n3)cc2)cc1[N+](=O)[O-]	-10	14	i	-2

cpd	MT1-MMP act inh RFP	CSC inhib	PABP polyA inh	Yeast UUG start
31	3	-9	0	-9
32	-3	-3	13	-9
33	1	-17	-19	-14
34	-2	2	-13	-38
35	3	54	3	-13
36	0	-11	10	-1
37	9	-11	5	-4
38	1	1	-4	-11
39	-11	.	.	-5
40	3	11	-2	2
41	6	-6	-4	-14
42	0	-4	-1	-3
43	-1	-2	12	-12
44	-2	-4	2	-12
45	2	-4	20	-8

Among those listed so far, these have a Cl atom.
cpd	molecule	HIV Env fusion	eIF4H inh	Rce1 inh	MT1-MMP act inh
5	O=C(O)c1cccc(NS(=O)(=O)c2ccc(Cl)c(C(=O)O)c2)c1	8	7	i	3
19	Cc1nn(C)c(C(=O)NC(=S)Nc2ccccc2O)c1Cl	-43	-2	i	-4
21	CN1c2ccccc2C(C)(C)C12CC(c1ccc(Cl)c(S(=O)(=O)N3CCCC3)c1)=NO2 (stereo not drawn)	.	-2	i	.
22	NS(=O)(=O)c1ccc(NC(=O)/C=C/c2ccccc2Cl)cc1	-6	-5	i	-2
25	O=C(/C=C/c1ncc(C(F)(F)F)cc1Cl)OCc1ccccc1	.	0	i	0

cpd	MT1-MMP act inh RFP	CSC inhib	PABP polyA inh	Yeast UUG start
5	1	-10	6	-5
19	3	12	-1	-14
21	.	-3	-4	.
22	-2	-5	6	-9
25	-3	-16	4	-8

Continuation.
cpd	molecule	HIV Env fusion	eIF4H inh	Rce1 inh	MT1-MMP act inh
46	CCCCC(=O)OCc1cn(-c2ccc(Cl)cc2)nn1	3	3	i	-1
47	O=C(Nc1ccccc1Cl)C1CCCN(S(=O)(=O)c2cccc3cccnc23)C1 (stereo not drawn)	-4	0	i	-1
48	Cc1ccc(CNC(=O)C(=O)NCC2OCCN2S(=O)(=O)c2ccc3c(c2)OCCO3)cc1 (stereo not drawn)	-5	12	i	6
49	COC(=O)CCCC(=O)N1CCC(CCC(=O)NC2CC2)CC1	-7	-1	i	-13
50	COc1ccc(N2CCN(CC(=O)Nc3c(C)cc(C)cc3C)CC2)cc1	-4	2	i	4
51	Nc1nc2c(nnn2C2CC(O)C(CO)O2)c(=O)[nH]1 (stereo not drawn)	15	.	.	-11
52	Cc1ccc(C(=O)OCC(=O)NCCc2ccc(S(N)(=O)=O)cc2)o1	-2	.	.	-4
53	Cc1sc(NC(=O)c2ccccc2)c(C(=O)N2CCN(C)CC2)c1C	-10	-6	i	-4
54	Clc1cccc(CNc2ccn3nc(-c4ccccc4)cc3n2)c1	-24	.	.	0
55	CCOC(=O)CC1C(=O)NCCN1S(=O)(=O)c1ccc(Cl)cc1 (stereo not drawn)	-115	-10	.	-2
56	Cc1cccc(CC2SC(N3CCN(c4ccccc4)CC3)=NC2=O)c1 (stereo not drawn)	.	-4	i	6
57	CC(=O)Nc1ccc(S(=O)(=O)Oc2ccc(N3C(=O)C4CCCCC4C3=O)cc2)cc1 (stereo not drawn)	14	-2	i	-10
58	O=C(NCc1ccco1)c1ccc(Cn2c(=O)c3ccccc3n(Cc3cccc(Cl)c3)c2=O)cc1	89*	0	.	-3
59	O=C(COC(=O)c1cccs1)NCc1ccc2c(c1)OCO2	.	-2	i	1
60	Cc1c(C(=O)NC2CC2)oc2ccccc12	1	.	.	0

cpd	MT1-MMP act inh RFP	CSC inhib	PABP polyA inh	Yeast UUG start
46	5	8	4	-4
47	-1	2	-4	-11
48	-3	-1	-1	-12
49	-2	-7	-11	-19
50	-3	4	0	1
51	-5	.	.	-5
52	3	9	.	-17
53	2	.	0	.
54	-1	.	.	-21
55	-1	8	-2	3
56	4	-15	-8	.
57	-13	1	3	3
58	-2	3	-7	-10
59	6	-16	10	-20
60	2	-4	.	24

More records follow:
cpd	molecule	HIV Env fusion	eIF4H inh	Rce1 inh	MT1-MMP act inh
61	O=C(NCc1ccccc1)Nc1cccn(Cc2ccccc2)c1=O	.	3	i	0
62	COc1ccc(-c2nc(CCNS(=O)(=O)c3ccc4c(c3)OCCO4)cs2)cc1	14	9	i	4
63	CC(=O)N1c2c(ccc3ccccc23)C(C)CC12CCCCC2 (stereo not drawn)	.	1	i	-7
64	CC(C)(C)OC(=O)NCCCC[C@@H](C(=O)NCCCCCCCCCCC(=O)N1CCN(C(=O)OC(C)(C)C)CC1)n1cc(CCCC(=O)O)nn1	3	.	.	-2
65	CCCCOc1cccc(C(=O)Nc2ccc(NC(=O)c3ccco3)cc2)c1	5	-7	i	1
66	CN1C(=S)SC(/[N+]([O-])=C\c2ccc(Cl)cc2)C1(C)C (stereo not drawn)	-38	-12	i	-3
67	O=C(Nc1cccc2ccccc12)c1ccc2sc([C@H]3C[C@H](O)[C@@H](CO)O3)nc2c1	2	.	.	-1
68	Cc1cc(OCC(=O)N[C@@H](CSCc2ccccc2)C(=O)O)c2c(C)c(C)c(=O)oc2c1	.	8	i	6

cpd	MT1-MMP act inh RFP	CSC inhib	PABP polyA inh	Yeast UUG start
61	-11	6	-3	-5
62	-14	-1	-7	-3
63	-8	27	6	-17
64	-1	-1	.	0
65	-1	4	1	3
66	1	.	-5	-17
67	1	.	.	-13
68	7	3	20	-10

Assay outcomes from PubChem.
